Screens deposited in PubChem by Broad Institute.
FGF22 binding: FGF22 (human) thermal shift binding; 340,000 compounds, 1.5% hits; Q9HCT0; calls only at 9.99 µM; recombinant FGF22 thermal shift, SYPRO orange fluorescence; percent of sucrose octasulfate shift, DMSO zero;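 active = melting point raised past a set limit in the mean and every replicate; three in four hits are not shown here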
Target sequence (Q9HCT0 whole entry, looked up): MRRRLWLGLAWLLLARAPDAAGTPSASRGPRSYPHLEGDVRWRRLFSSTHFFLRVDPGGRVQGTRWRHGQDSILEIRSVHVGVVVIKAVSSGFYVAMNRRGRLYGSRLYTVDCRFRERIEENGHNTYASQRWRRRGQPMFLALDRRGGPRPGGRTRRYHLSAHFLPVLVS
Calls only; i = inactive. Some of the compounds tested (hit frequency here may not be typical).

SMILES | FGF22 binding
CO[C@@H](CN(C)C(=O)c1ccccc1F)[C@H](C)CN([C@@H](C)CO)S(=O)(=O)c1ccccc1 | i
CCCN(C)C[C@H]1OCCCC[C@H](C)Oc2ccc(NS(=O)(=O)c3ccc(Cl)cc3)cc2C(=O)N([C@H](C)CO)C[C@H]1C | i
CCCC(=O)Nc1ccc2c(c1)C(=O)N(C)C[C@H](OC)[C@@H](C)CN(C(=O)c1ccccc1F)[C@H](C)CO2 | i
C[C@H](CO)N1C[C@H](C)[C@@H](CN(C)C(=O)Nc2cccc(C(F)(F)F)c2)OCc2ccccc2-c2c(n(C)c3ccccc23)C1=O | i
Cc1noc(C)c1NC(=O)N(C)C[C@H]1Oc2ccc(NC(=O)CCCCCC(=O)Nc3ccccc3N)cc2CC(=O)N([C@H](C)CO)C[C@H]1C | i
O=C([C@H]1[C@H](CO)[C@H]2Cn3c(ccc(-c4ccccc4F)c3=O)[C@H]2N1CC1CC1)N1CCCCC1 | i
N#C[C@H]1N[C@H](CO)[C@H]1c1ccc(C#Cc2ccccc2F)cc1 | i
CCCC(=O)Nc1ccc2c(c1)OC[C@H](C)N(Cc1cncnc1)C[C@H](C)[C@@H](OC)CN(C)C2=O | i
COc1ccc(S(=O)(=O)Nc2ccc3c(c2)C(=O)N([C@@H](C)CO)C[C@H](C)[C@@H](CN(C)C(=O)Nc2ccc(F)cc2)OCCCC[C@H](C)O3)cc1 | i
Cn1cnc(S(=O)(=O)N[C@@H]2C=C[C@@H](CC(=O)N3CCN(c4ccccc4)CC3)O[C@@H]2CO)c1 | i
C[C@@H]1CN([C@@H](C)CO)C(=O)c2cccc(N(C)C)c2O[C@@H]1CN(C)Cc1ccc2c(c1)OCO2 | i
Cc1noc(C)c1NC(=O)Nc1ccc2c(c1)CC(=O)N([C@H](C)CO)C[C@H](C)[C@@H](CN(C)Cc1ccc3c(c1)OCO3)O2 | i
CCCNC(=O)Nc1ccc2c(c1)C(=O)N(C)C[C@H](OC)[C@@H](C)CN(C(=O)C1CC1)[C@H](C)CO2 | i
COc1ccc2c3c([nH]c2c1)[C@H](CO)N(C(=O)CN1CCOCC1)CC31CN(Cc2ccccc2)C1 | i
CN1c2ccc(-c3ccc(F)cc3)cc2[C@@H]2[C@@H](CCN2S(=O)(=O)c2ccc(F)cc2)[C@@H]1CO | i
CN(C)C(=O)[C@@H]1[C@@H](CO)[C@@H]2Cn3c(ccc(-c4ccccc4)c3=O)[C@H]1N2CC1CCCC1 | i
COCC(=O)NC[C@H]1[C@@H](c2ccccc2)[C@@H](CO)N1C(=O)c1ccccc1 | i
Cc1ccc(-c2cnc3c(c2)C(=O)N([C@H](C)CO)C[C@@H](C)[C@@H](CN(C)C)O3)cc1 | i
CN1C(=O)c2cc(NC(=O)c3ccc(F)c(F)c3)ccc2OC[C@H]2O[C@H](CC(=O)N3CCOCC3)CC[C@@H]21 | i
COCC(=O)Nc1ccc2c(c1)[C@H]1C[C@H](CC(=O)NCCN3CCCCC3)O[C@H](CO)[C@H]1O2 | i
CCNC(=O)C[C@@H]1CC[C@@H]2[C@H](COC[C@@H](O)CN2C(=O)Nc2cccc(OC)c2)O1 | i
C[C@@H]1CCCCO[C@@H](CN(C)Cc2ccc(Cl)c(Cl)c2)[C@@H](C)CN([C@@H](C)CO)C(=O)c2cc(NC(=O)Cc3ccccc3)ccc2O1 | i
C[C@@H]1CCCCO[C@@H](CN(C)CC2CCCCC2)[C@@H](C)CN([C@H](C)CO)C(=O)c2cc(NC(=O)c3ccncc3)ccc2O1 | i
C[C@H](CO)N1C[C@H](C)[C@H](CN(C)Cc2cccc(C(F)(F)F)c2)Oc2ncc(Br)cc2C1=O | i
CN1CCN(C(=O)C[C@@H]2C[C@@H]3c4cc(NC(=O)CC5CC5)ccc4O[C@@H]3[C@@H](CO)O2)CC1 | i
(further entries)
SMILES | FGF22 binding
C[C@H](CO)N1C[C@H](C)[C@H](CN(C)Cc2ccc3c(c2)OCO3)Oc2ccc(NC(=O)CCC(F)(F)F)cc2C1=O | i
C[C@H]1CN([C@@H](C)CO)S(=O)(=O)c2ccc(-c3cccnc3)cc2O[C@H]1CN(C)Cc1cncnc1 | i
C[C@H](CO)N1C[C@H](C)[C@@H](CN(C)S(=O)(=O)c2cn(C)cn2)Oc2ccc(NS(=O)(=O)c3cn(C)cn3)cc2C1=O | i
C[C@@H]1CN([C@@H](C)CO)C(=O)c2cccc(NS(=O)(=O)c3cccs3)c2O[C@H]1CN(C)C(=O)Nc1ccc(C(F)(F)F)cc1 | i
O=C(c1ccc2c(c1)OCO2)N1CCCCN2[C@H](C1)[C@H](c1ccc(-c3ccccc3)cc1)[C@@H]2CO | i
C[C@@H]1CCCCO[C@@H](CN(C)Cc2ccc(C(F)(F)F)cc2)[C@H](C)CN([C@@H](C)CO)C(=O)c2cc(NS(C)(=O)=O)ccc2O1 | i
O=Cc1ccccc1Cl | i
CC(=O)N1[C@H](C(=O)NCc2ccccc2Cl)[C@@H](CO)[C@@H]2Cn3c(ccc(-c4cccnc4)c3=O)[C@@H]21 | i
C[C@@H]1CN([C@@H](C)CO)C(=O)Cc2cc(NC(=O)Cc3ccccc3)ccc2O[C@@H]1CN(C)C(=O)NC1CCCCC1 | i
O=C(c1cccnc1)N1CC[C@H]2[C@H](CO)Nc3ccc(-c4ccc(F)cc4)cc3[C@H]21 | i
O=C(C[C@H]1CC[C@H]2[C@@H](COC[C@H](O)CN2Cc2cccc(Cl)c2)O1)NCc1cccc(F)c1 | i
CN1C(=O)c2cc(NC(=O)c3ccc(F)c(F)c3)ccc2OC[C@@H]2O[C@@H](CC(=O)N3CCOCC3)CC[C@H]21 | i
COc1cccc(NC(=O)N[C@@H]2C=C[C@H](CC(=O)NCc3ccccn3)O[C@H]2CO)c1 | i
CC=Cc1ccc2n(c1=O)C[C@@H]1[C@@H](CO)[C@H](C(=O)NCCC)[C@H]2N1CC1CCOCC1 (mixture of isomers) | i
COc1ccc2c3c(n(C)c2c1)[C@H](CO)N(CC1CC1)CC31CCN(C(=O)c2ccc3c(c2)OCO3)CC1 | i
COc1ccc(NC(=O)N(C)C[C@H]2Oc3ccc(NS(=O)(=O)c4ccc(Cl)cc4)cc3CC(=O)N([C@H](C)CO)C[C@H]2C)cc1 | i
Cc1cccc(S(=O)(=O)N2CCCCN3[C@H](C2)[C@@H](c2ccc(-c4ccccc4)cc2)[C@@H]3CO)c1 | i
C[C@@H]1CN([C@@H](C)CO)C(=O)c2cccc(NS(=O)(=O)c3cn(C)cn3)c2O[C@@H]1CN(C)Cc1ccc(C(=O)O)cc1 | i
COc1ccc(S(=O)(=O)N(C)C[C@H]2Oc3c(NS(=O)(=O)c4c(C)noc4C)cccc3C(=O)N([C@H](C)CO)C[C@H]2C)cc1 | i
COc1ccc2c3c([nH]c2c1)[C@H](CO)N(Cc1nccs1)CC31CN(Cc2nccs2)C1 | i
COC(=O)C[C@H]1CC[C@@H]2[C@@H](COc3ccc(NC(=O)Nc4ccccc4C)cc3C(=O)N2C)O1 | i
CCCNC(=O)C[C@H]1C[C@@H]2c3cc(NC(=O)Nc4ccc(OC)cc4)ccc3O[C@@H]2[C@@H](CO)O1 | i
C[C@@H]1CN([C@H](C)CO)C(=O)Cc2cc(NC(=O)Nc3cccc4ccccc34)ccc2O[C@@H]1CN(C)Cc1ccncc1 | i
C[C@@H]1CN([C@@H](C)CO)C(=O)c2cc(/C=C/c3ccccc3)cnc2O[C@@H]1CN(C)C(=O)c1ccc2c(c1)OCO2 | i
CO[C@@H]1CN(C)C(=O)c2cc(NC(=O)Nc3ccccc3F)ccc2OC[C@@H](C)NC[C@@H]1C | i

Of the compounds above, 9 contain an aryl methoxy group:
SMILES | FGF22 binding
COc1ccc(S(=O)(=O)Nc2ccc3c(c2)C(=O)N([C@@H](C)CO)C[C@H](C)[C@@H](CN(C)C(=O)Nc2ccc(F)cc2)OCCCC[C@H](C)O3)cc1 | i
COc1ccc2c3c([nH]c2c1)[C@H](CO)N(C(=O)CN1CCOCC1)CC31CN(Cc2ccccc2)C1 | i
CCNC(=O)C[C@@H]1CC[C@@H]2[C@H](COC[C@@H](O)CN2C(=O)Nc2cccc(OC)c2)O1 | i
COc1cccc(NC(=O)N[C@@H]2C=C[C@H](CC(=O)NCc3ccccn3)O[C@H]2CO)c1 | i
COc1ccc2c3c(n(C)c2c1)[C@H](CO)N(CC1CC1)CC31CCN(C(=O)c2ccc3c(c2)OCO3)CC1 | i
COc1ccc(NC(=O)N(C)C[C@H]2Oc3ccc(NS(=O)(=O)c4ccc(Cl)cc4)cc3CC(=O)N([C@H](C)CO)C[C@H]2C)cc1 | i
COc1ccc(S(=O)(=O)N(C)C[C@H]2Oc3c(NS(=O)(=O)c4c(C)noc4C)cccc3C(=O)N([C@H](C)CO)C[C@H]2C)cc1 | i
COc1ccc2c3c([nH]c2c1)[C@H](CO)N(Cc1nccs1)CC31CN(Cc2nccs2)C1 | i
CCCNC(=O)C[C@H]1C[C@@H]2c3cc(NC(=O)Nc4ccc(OC)cc4)ccc3O[C@@H]2[C@@H](CO)O1 | i

Next section.
SMILES | FGF22 binding
Cc1ccc(S(=O)(=O)N2CC[C@@H]3[C@H](CO)Nc4ccc(Br)cc4[C@@H]32)cc1 | i
C[C@@H](NC(=O)C[C@@H]1CC[C@H](NC(=O)Nc2ccc3c(c2)OCO3)[C@@H](CO)O1)c1ccccc1 | i
C[C@H](CO)N1C[C@H](C)[C@H](CN(C)S(C)(=O)=O)Oc2ccc(NS(=O)(=O)c3ccccc3)cc2C1=O | i
C/C=C/c1ccccc1[C@H]1[C@@H](C#N)N(C(=O)NC2CCCCC2)[C@H]1CO | i
Cc1ccc(S(=O)(=O)Nc2ccc3c(c2)C(=O)N([C@@H](C)CO)C[C@H](C)[C@@H](CN(C)S(C)(=O)=O)O3)cc1 | i
CN1CCN(C(=O)C[C@@H]2CC[C@H](NS(=O)(=O)c3cccc(F)c3)[C@H](CO)O2)CC1 | i
C[C@H](CO)N1C[C@H](C)[C@@H](CN(C)C(=O)Cc2cccnc2)Oc2cc(-c3cncnc3)ccc2S1(=O)=O | i
COc1cccc(-c2ccc3c(c2)O[C@@H](CN(C)C(=O)C2CCC2)[C@H](C)CN([C@@H](C)CO)S3(=O)=O)c1 | i
CC=Cc1ccc2n(c1=O)C[C@H]1[C@H](CO)[C@@H](C(=O)NCc3ccccn3)[C@@H]2N1CCC (mixture of isomers) | i
N#C[C@@H]1[C@@H](c2ccc(C3=CCCCC3)cc2)[C@H](CO)N1C(=O)C1CCOCC1 | i
C[C@@H]1CCCCO[C@@H](CN(C)C(=O)Nc2ccc3c(c2)OCO3)[C@@H](C)CN([C@H](C)CO)C(=O)c2cc(NC(=O)Nc3ccc(C(F)(F)F)cc3)ccc2O1 | i
C[C@@H]1CCCCO[C@@H](CN(C)C(=O)Nc2ccc(F)cc2)[C@H](C)CN([C@@H](C)CO)C(=O)c2cc(NS(=O)(=O)c3cccs3)ccc2O1 | i
CN(C)C(=O)C[C@H]1CC[C@@H]2[C@@H](COc3ccc(NC(=O)c4cnccn4)cc3C(=O)N2C)O1 | i
C[C@H]1CN([C@@H](C)CO)C(=O)c2cc(C#Cc3ccccc3F)cnc2O[C@@H]1CN(C)C(=O)C1CC1 | i
CO[C@@H]1CN(C)C(=O)c2cc(NC(=O)c3nc4ccccc4s3)ccc2OC[C@@H](C)N(Cc2cccnc2)C[C@@H]1C | i
O=C(N[C@H]1CC[C@@H](CCn2cc(C3(O)CCCC3)nn2)O[C@H]1CO)C1CC1 | i
CC(C)NC(=O)Nc1ccc2c(c1)C(=O)N([C@H](C)CO)C[C@H](C)[C@H](CN(C)Cc1ccc(C(=O)O)cc1)OCCCC[C@H](C)O2 | i
CN1[C@H](C(=O)NCc2ccccn2)[C@@H](CO)[C@@H]2Cn3c(ccc(-c4ccc(F)cc4)c3=O)[C@@H]21 | i
C[C@@H]1CN([C@H](C)CO)C(=O)c2cccc(NC(=O)Nc3cccc4ccccc34)c2O[C@H]1CN(C)S(=O)(=O)c1ccc(F)cc1 | i
COc1ccc(S(=O)(=O)Nc2cccc3c2O[C@H](CN(C)S(=O)(=O)c2ccc(C)cc2)[C@@H](C)CN([C@@H](C)CO)C3=O)cc1 | i
CC(C)C#Cc1ccc([C@@H]2[C@@H](CO)N3CCCCN(S(=O)(=O)Cc4ccccc4)C[C@H]23)cc1 | i
Cc1noc(C)c1S(=O)(=O)Nc1ccc2c(c1)C(=O)N([C@@H](C)CO)C[C@H](C)[C@H](CN(C)C(=O)NC1CCCCC1)OCCCC[C@H](C)O2 | i
C[C@@H]1CN([C@@H](C)CO)C(=O)c2cc(NS(=O)(=O)c3cn(C)cn3)ccc2O[C@@H]1CN(C)Cc1ccc2c(c1)OCO2 | i
C[C@H]1CN([C@@H](C)CO)C(=O)Cc2cc(NC(=O)CCCCCC(=O)Nc3ccccc3N)ccc2O[C@@H]1CN(C)C(=O)Nc1ccccc1 | i
CC(C)C[C@H](NC(=O)CC1CCCC1)C(=O)N1CCC[C@H]1C(=O)NCc1ccccc1 | i
Next part.
SMILES | FGF22 binding
C=CC(=O)Nc1cccc(Oc2nc(Nc3ccc(N4CCN(C)CC4)cc3OC)ncc2Cl)c1 | i
COc1cccc(S(=O)(=O)N2CC[C@H]3[C@H](CO)Nc4ccc(C#Cc5cccnc5)cc4[C@H]32)c1 | i
COc1ccc2c3c([nH]c2c1)[C@H](CO)N(C(=O)Nc1ccc(F)cc1)CC31CCN(C(=O)Nc2ccccc2)CC1 | i
C[C@@H]1CN([C@H](C)CO)C(=O)c2cc(NC(=O)c3ccncc3)ccc2O[C@H]1CN(C)Cc1ccc(C(=O)O)cc1 | i
CC(=O)N(C)C[C@H]1Oc2ncc(C#Cc3ccccn3)cc2C(=O)N([C@@H](C)CO)C[C@H]1C | i
COc1ccc(CN(C)C[C@@H]2Oc3ccc(NS(=O)(=O)c4cccs4)cc3CC(=O)N([C@H](C)CO)C[C@@H]2C)cc1 | i
O=C(NCc1ccccn1)[C@@H]1[C@@H](CO)[C@@H]2Cn3c(cccc3=O)[C@@H]2N1CCc1ccccc1 | i
C[C@@H]1CN([C@H](C)CO)C(=O)c2ccccc2-c2ccccc2CO[C@@H]1CN(C)C(=O)c1ccccc1 | i

A portion of the results above, as a working copy:
SMILES | FGF22 binding
O=C(NCc1ccccn1)[C@@H]1[C@@H](CO)[C@@H]2Cn3c(cccc3=O)[C@@H]2N1CCc1ccccc1 | i
C[C@@H]1CN([C@H](C)CO)C(=O)c2ccccc2-c2ccccc2CO[C@@H]1CN(C)C(=O)c1ccccc1 | i
